# Source: PubChem BioAssay
# Rango-impB inh – prevents formation of the Rango-importin beta complex | AID 540263 | Rango CFP/YFP FRET sensor + importin beta, 45 min | 340,000 compounds, 0.031% hits | Q14974 | Potency, µM (top dose mostly 92.2 µM), for inactives: top-dose inhibition of complex formation; active = rising FRET ratio curve, often small or poorly fitted; inconclusive = mostly compound fluorescence or quenching in the first reads; inactive = flat curves in all reads;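 further: potency means the concentration at half of the fitted maximal effect; 0% = DMSO wells and 100% = buffer wells lacking importin beta; nearly all actives have a fitted effect of over 15% in size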
# Target sequence (Q14974 whole entry, looked up): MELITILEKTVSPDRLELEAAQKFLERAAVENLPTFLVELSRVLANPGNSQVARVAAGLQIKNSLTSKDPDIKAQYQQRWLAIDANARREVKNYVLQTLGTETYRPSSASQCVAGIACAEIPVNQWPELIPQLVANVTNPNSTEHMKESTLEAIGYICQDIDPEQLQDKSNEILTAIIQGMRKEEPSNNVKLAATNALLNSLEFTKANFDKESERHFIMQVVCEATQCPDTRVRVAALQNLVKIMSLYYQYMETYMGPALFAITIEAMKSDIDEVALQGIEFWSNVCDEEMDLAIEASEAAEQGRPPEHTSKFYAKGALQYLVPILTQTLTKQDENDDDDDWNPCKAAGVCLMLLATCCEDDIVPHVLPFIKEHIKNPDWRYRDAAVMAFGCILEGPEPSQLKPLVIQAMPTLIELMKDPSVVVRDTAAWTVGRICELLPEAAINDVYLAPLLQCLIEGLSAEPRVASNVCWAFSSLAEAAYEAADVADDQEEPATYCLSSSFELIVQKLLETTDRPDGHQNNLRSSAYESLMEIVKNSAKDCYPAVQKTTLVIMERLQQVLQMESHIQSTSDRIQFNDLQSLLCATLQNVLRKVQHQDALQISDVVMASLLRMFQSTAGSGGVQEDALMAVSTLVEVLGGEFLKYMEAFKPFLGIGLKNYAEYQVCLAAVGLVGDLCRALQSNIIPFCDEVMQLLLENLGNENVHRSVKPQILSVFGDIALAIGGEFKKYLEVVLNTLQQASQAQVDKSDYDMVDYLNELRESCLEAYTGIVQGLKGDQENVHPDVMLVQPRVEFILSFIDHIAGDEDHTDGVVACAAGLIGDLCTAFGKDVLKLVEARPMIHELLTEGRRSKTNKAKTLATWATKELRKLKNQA
#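 FRET biosensor (snurportin 1 IBB flanked by EYFP and cerulean), 50 nM, with compound 5 min, then 0.125 microM importin beta in PBS, 1 mM DTT, 0.02% Tween-20, 0.1% BSA. CFP/YFP ratio read after 45 min at room temperature; pre-read flags interference.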
# GLA inh pH 4.5 – inhibitors of human alpha-galactosidase A at pH 4.5; AID 1467; activity change, negative = inhibition, % at 105 µM; P06280; 230,000 tested, under 10 active; purified enzyme, 4-MU-alpha-Gal fluorescence, pH 4.5; inconclusive = small, poorly fitted or top-dose-only inhibition, or a rising curve; inactive = flat fitted curve, though single readings scatter; no compound was filed as active;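 further: 0% = full activity with enzyme and -100% = basal without enzyme; dose as in the result columns while the protocol names 77 µM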
# Rango release inh – prevents RanGTP from dissociating the Rango-importin beta complex. O95149+P62826. Biochemical FRET Rango-importin beta, RanGTP-induced dissociation. Potency, µM (highest dose often 46.1 µM), inactives show at the highest dose activity change, negative = inhibition. 340,000 compounds, 0.071% hits. AID 540253; active means falling FRET ratio curve, often poorly fitted, with flat reads before Ran was added; inconclusive means other falling curves, or compound fluorescence or quenching; inactive means flat or rising ratio curve;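 further: potency means the concentration at half of the fitted maximal effect; % of control where 0% means no effect; nearly all actives have a fitted effect of over 45% in size; -100% = wells without RanGTP and RCC1; the record marks most hits as doubtful in a second field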
#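 Recombinant Rango FRET biosensor (EYFP–snurportin 1 IBB–cerulean CFP10) at 0.1 uM premixed with 0.25 uM importin beta in PBS, 1 mM DTT, 0.02% Tween-20, 0.1% BSA. Compound added 5 min; RanGTP-RCC1 (0.6 uM Ran, 2 mM GTP, 0.2 uM RCC1) then triggers release, read at 45 min.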
# miR-21 FLuc – raises the signal of a miR-21 reporter. HeLa miR-21 FLuc reporter, luciferase, 48 h. Potency, µM (series often up to 38.3 µM), inactives show at the highest dose reporter change, positive = more light. 340,000 tested, under 10 active; active = well fitted rising curve with a large enough effect; inconclusive = small, poorly fitted or top-dose-only effect; inactive = no such curve, though single readings can be large or run the other way;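 further: % of control where 0% means no effect; miR-21 action dims this reporter so a rising signal means less miR-21 action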
#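 HeLa cells stably expressing CMV-driven firefly luciferase with a downstream miR-21 binding sequence, endogenously expressing miR-21, were treated with titrations (up to about 40uM final) for 48 hours at 37 degree Celsius. Luciferase luminescence was read after lysis.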
# Starred values were filed as active, the others as inactive; ? = inconclusive; . = no result given; & = joins results of further samples; [ ] = dose if it differs, or a comment. A portion of the library. The share of hits here may be higher or lower than overall.
SMILES,Rango-impB inh,GLA inh pH 4.5,Rango release inh,miR-21 FLuc
CCOC(=O)C(NC(=O)NCc1cccc(C(F)(F)F)c1)(OCC)C(F)(F)F (stereo not given),0.5%,6,2%,1%
Cn1c(=O)oc2cc(S(=O)(=O)NC3CCCCCCC3)ccc21,-5.6%,4,22%,-24%
CC(NC(=O)Cc1ccccc1)C(=O)O (stereo not given),1.0%,.,1%,.
CCN1CCN(CCC2Oc3cc([N+](=O)[O-])ccc3NC2=O)CC1 (stereo not given),0.8%,1,-1%,0%
COC1CCCCC1NS(=O)(=O)c1ccccc1 (stereo not given),0.6%,4,-11%,1%
c1ccc(Cc2nnc3sc(-c4ccc5c(c4)OCCO5)nn23)cc1,7.9%,1,-13%,-68%
CCOC(=O)c1sc(=NC(=O)/C=C/c2ccccc2)n(C)c1C,-4.2%,5,25%,-27%
Cc1ccc2c(c1)C(c1ccccc1)N(C(=O)c1ccc(Br)cc1)CC(=O)N2 (stereo not given),-6.7%,.,0%,1%
Cc1cc(C)c(S(=O)(=O)N2CCN(c3ccccn3)CC2)c(C)c1,-0.5%,.,-11%,.
Cc1c(C(=O)NCC2CCCO2)cccc1[N+](=O)[O-] (stereo not given),-0.9%,1,-7%,0%
CC(=O)c1c(OCC(=O)N(C)C2CCCCC2)ccc2c(C)cc(=O)oc12,-3.1%,.,16%,.
CCCCn1c(CN2CCN(C(=O)OCC)CC2)nc2c1c(=O)[nH]c(=O)n2C,0.0%,-6,-8%,-2%
COc1ccc(-c2ccc3c(c2)C2CC3CCN2)cc1 (stereo not given),-0.4%,.,5%,.
Cc1ccccc1C(=O)Nc1ccc(S(=O)(=O)N2CCOCC2)cc1,-2.1%,.,17%,0%
CCOc1ccc(-n2c(N)c(C(=O)NCC3CCCO3)sc2=S)cc1 (stereo not given),1.2%,-19,10%,-11%
COC(=O)C1CN(S(=O)(=O)c2ccc(C)cc2)CCN1S(=O)(=O)c1ccc(C)cc1 (stereo not given),0.0%,-7,10%,0%
CC(C)(CNc1ccc([N+](=O)[O-])cc1Cl)N1CCOCC1,-2.2%,.,-7%,-6%
O=C(c1cnn(C(=O)c2cccc(S(=O)(=O)N3CCOCC3)c2)c1)c1ccccc1O,-1.5%,2,-16%,2%
CC[N+](C)(CC)CCC(c1ccccc1)C1CCCCC1 (stereo not given),-0.6%,.,-5%,13%
CC1(C)Cc2ccccc2-c2nnc(-c3cccc(O)c3)n21,-1.6%,0,4%,-1%
Cc1ccc(NS(=O)(=O)c2ccc(Cl)c(C(=O)Nc3cccc(C(=O)O)c3)c2)cc1,?,.,-5%,2%
O=C(NCCCN1CCOCC1)c1ccc2c(=O)n(Cc3ccccc3)c(=S)[nH]c2c1,-1.4%,.,6%,5%
CCCCn1c(CN2CCN(c3cccc(Cl)c3)CC2)nc2c1c(=O)[nH]c(=O)n2C,-2.4%,-3,21%,27%
N/C(=N\S(=O)(=O)c1cccs1)c1ccccc1Cl,-3.3%,.,8%,0%
CC(/C=C/c1cccs1)=C\C(=O)O,-1.3%,6,2%,3%
COc1ccc(C(CCN(Cc2ccc(OC)c(OC)c2)C(=O)CCl)c2ccccc2)cc1 (stereo not given),-1.3%,1,-14%,?
Cc1ccc(C)c(NC(=O)CS(=O)(=O)c2cn(C)c3ccccc23)c1,-1.4%,-16,-12%,-10%
Cn1c(=O)n(CC(=O)OCc2ccccc2)c(=O)c2c1nc1n2CCCN1C1CCCCC1,-0.3%,.,18%,.
COc1cc(/C=N/NC(=O)CSc2nc3ccccc3n2C)cc(OC)c1OC,0.3%,0,6%,-4%
CC(/C=N/NC(=O)c1nnn(-c2nonc2N)c1C(C)C)=C\c1ccccc1,-2.6%,.,-19%,-6%
CCc1nnc(NC(=O)CS(=O)(=O)Cc2ccccc2)s1,-1.3%,.,0%,0%
N#CCNC1CC(=O)N(c2ccccc2)C1=O (stereo not given),-0.2%,.,-7%,-2%
COc1cc(OC)c(N(C)S(=O)(=O)c2cccc(C(=O)Nc3nnc(C4CC4)s3)c2)cc1Cl,-2.1%,1,0%,-1%
O=C(C1=C(O)C(=O)N(Cc2ccco2)C1c1ccccc1)c1cccs1 (stereo not given),-1.3%,-10,-2%,-1%
Cc1cccc(C(C)(C)C)c1OCCCCN1CCCC1,-0.4%,-7,-5%,-1%
CC(C)(C)c1ccc(/C=N/NC(=S)NC2CCCCC2)cc1,-0.1%,-6,?,9%
O=C(Cn1cncn1)N/N=C/c1cccnc1,0.1%,1,9%,2%
CC(=O)c1sc(NC(=O)c2cc(=O)c3ccccc3o2)nc1C,4.1%,-8,-2%,-38%
Nc1ccc2c(c1)C(=O)N(c1cccc3ccccc13)C2=O,?,.,?,-4%
COC(=O)C(NNc1ccccc1)(NC(=O)c1ccc(F)cc1)C(F)(F)F (stereo not given),-3.7%,1,-10%,-13%
COc1ccc(S(=O)(=O)N(CCCN2CCOCC2)Cc2ccc(OC)c(OC)c2)cc1,-0.3%,-2,-26%,2%
CCCNC(=O)C(Cc1ccc(F)cc1)NC(=O)c1ccccc1 (stereo not given),4.5%,.,9%,.
O=c1c2ccccc2nnn1Cc1ccccc1,?,-5,0%,-15%
Cc1ccccc1NC(=O)CC1SCCNC1=O (stereo not given),2.1%,-7,3%,-2%
O=C(NCCCn1ccnc1)C(=O)NCC1OCCN1S(=O)(=O)c1ccc2c(c1)OCCO2 (stereo not given),-3.1%,4,13%,10%
C=CCN1C(=O)CSc2ccc(C(=O)NCc3cccs3)cc21,?,-5,13%,0%
COc1ccc(NC(=O)c2oc3ccc(S(=O)(=O)N4CCC5(CC4)OCCO5)cc3c2C)cc1,8.3%,-14,-5%,28%
Cc1cccc(NC(=O)CNC(=O)c2sc3ccccc3c2Cl)n1,-4.4%,.,15%,.
CC(C)c1nc(N2CCOCC2)c(C#N)c2c1CCC2,-2.5%,9,-15%,-9%
Cc1ccc(NS(=O)(=O)c2ccc3c(c2)CC(=O)N3)cc1C,-0.1%,.,25%,1%
COc1cc(OC)cc(C(=O)N[C@H](C(=O)OCC(=O)Nc2ccc(F)c(F)c2F)C(C)C)c1,-1.5%,-19,-6%,1%
O=C(O)c1ccc(CSc2nnc(-c3ccccc3Br)o2)cc1,-2.5%,.,14%,-13%
CCOC(=O)c1cc(C#N)c(N2CCCNCC2)nc1C(F)(F)F,-0.7%,.,0%,-2%
O=C(Cc1cccs1)N/N=C/C=C\c1ccco1,-2.1%,1,0%,9%
O=C(O)CC(CC(=O)Nc1ccc(-c2ccccc2)cc1)c1ccccc1 (stereo not given),-0.6%,.,11%,-8%
CCOc1ccccc1NC(=O)C1CCC(=O)N1S(=O)(=O)c1ccc(C)cc1 (stereo not given),0.8%,.,-12%,0%
Cc1ccc(NC(=O)C2CCN(S(=O)(=O)c3c(C)noc3C)CC2)cc1C,0.6%,-6[21.1 µM],1%,-3%&4%
CCCc1cc(=O)[nH]c(SCC(=O)N2CCN(c3ccc(F)cc3)CC2)n1,-0.8%,-4,-6%,-4%
Cc1cc2n(n1)C(c1ccccc1)Nc1ccccc1-2 (stereo not given),0.3%,-1,-4%,-6%
Cc1cc(C)cc(NC(=S)N2CCC(C(=O)c3ccc(F)cc3)CC2)c1,-1.2%,.,2%,.
# Following part.
SMILES,Rango-impB inh,GLA inh pH 4.5,Rango release inh,miR-21 FLuc
CC1(C)CC(=O)c2cnn(-c3nc4ccccc4[nH]3)c2C1,3.1%,-6,15%,-1%
O=C1CCCN1CCCNC(=S)Nc1ccccc1,4.3%,5,9%,5%
Cc1ccc(-c2nc3ccccc3nc2-c2ccccc2)cc1,-3.5%,.,-12%,-4%
CN(CC(=O)NCCC1=CCCCC1)S(=O)(=O)c1ccc2c(c1)CCC(=O)N2,-0.4%,3,-15%,1%
O=C(CNC(=O)c1ccc(F)cc1)N/N=C/c1ccc(O)c([N+](=O)[O-])c1,3.4%,-2,?,-3%
O=C(N/N=C\c1ccc(CNS(=O)(=O)c2ccc(Cl)cc2)o1)C(=O)Nc1ccc(Oc2ccccc2)cc1,-2.6%,1,18%,-11%
COc1ccc(CN2CC[C@H]3C=CCc4cccc(c43)C2)cc1,-2.7%,.,-17%,.
Cc1cccc(NC(=O)CNC(=O)COc2cc(F)ccc2[N+](=O)[O-])c1C,1.1%,-2,1%,-2%
O=S(=O)(NC1CCCCC1N1CCCCC1)c1ccc(Cl)cc1 (stereo not given),-2.4%,.,6%,3%
Cc1cn(S(=O)(=O)c2ccc(Br)cc2)cn1,-0.4%,13,-9%,4%
C=CCC1(CC=C)CCCN1C(=O)CC1C(=O)NCCN1Cc1cccc(OC)c1 (stereo not given),-1.2%,1,5%,-2%
COc1ccc(N2CCN(C(=S)Nc3cccc(C)c3)CC2)cc1,4.7%,5,17%,-1%
Cc1ccc(NC(=O)COC(=O)CN2CSCC2=O)cc1C,0.8%,-10,1%,0%
COCCCNC(=O)CC1C[C@H](C(=O)N2CCOCC2)[C@@]2(C)c3[nH]c4ccccc4c3CCN2C1=O (stereo not given in full),0.6%,.,?,.
O=C(N=c1ccn(-c2nc3ccccc3nc2NS(=O)(=O)c2ccccc2)cc1)c1ccccc1Cl,?,.,?,0%
COc1ccc(NC(=O)NC[C@@H]2CC[C@@H](Cc3ccc(-c4ccccc4)cc3)O2)cc1,-1.4%,.,-12%,.
Cc1ccccc1CSCCC(=O)NCCC1=CCCCC1,-0.4%,0,8%,-13%
O=[N+]([O-])c1cccc(C(=S)N2CCN(c3ccccc3F)CC2)c1,-0.4%,3,-14%,-7%
Cc1ccc(NC(=O)/C(=C\c2cccc([N+](=O)[O-])c2)NC(=O)c2cccs2)cc1,2.1%,5,6%,-16%
O=C1CC(N2CCN(Cc3ccc4c(c3)OCO4)CC2)C(=O)N1c1cccc(Cl)c1 (stereo not given),3.8%,-19,15%,-3%
CC(C)[C@@H](C(=O)N[C@@H](C(=O)O)c1ccccc1)N1C(=O)N2CCc3c([nH]c4ccccc34)[C@@]2(C)C1=O,-1.5%,.,-7%,0%
COc1ccc(N2C(=O)c3ccccc3NC2c2ccc(OC)c(Cn3nnc4ccccc43)c2)cc1 (stereo not given),-1.7%,7,0%,-66%
CN(C)CCNC(=O)C(=O)Nc1ccc2c(c1)N(S(=O)(=O)c1cccs1)CCC2,8.7%,.,8%,.
CS(=O)(=O)N1CCCC(C(=O)NCCCN2CCc3ccccc3C2)C1 (stereo not given),-0.8%,-7,-8%,-9%
Cc1nc2oc(C(=O)c3ccc(Br)cc3)c(N)c2c2c1COC(C)(C)C2,?,2,-23%,-6%
CCCCC(CCC(=O)Nc1ccn(-c2ccccc2)n1)C(=O)O (stereo not given),4.8%,1,-2%,-10%
COC(=O)Nc1ccc(S(=O)(=O)N2CCC(C(=O)NCc3ccc4c(c3)OCO4)CC2)cc1,-3.7%,.,-13%,.
CCOC(=O)[C@H]1[C@H]2COc3ccccc3[C@@H]2N2C(=O)[C@@H](CO)NC(=O)[C@@]12C,1.6%,.,-15%,.
CC(=O)Nc1ccc(S(=O)(=O)N2CCN=C2SCc2ccc(F)cc2)cc1,-1.1%,.,-4%,12%

# For convenience, part of the list above.
SMILES,Rango-impB inh,GLA inh pH 4.5,Rango release inh,miR-21 FLuc
CC(C)[C@@H](C(=O)N[C@@H](C(=O)O)c1ccccc1)N1C(=O)N2CCc3c([nH]c4ccccc34)[C@@]2(C)C1=O,-1.5%,.,-7%,0%
COc1ccc(N2C(=O)c3ccccc3NC2c2ccc(OC)c(Cn3nnc4ccccc43)c2)cc1 (stereo not given),-1.7%,7,0%,-66%
CN(C)CCNC(=O)C(=O)Nc1ccc2c(c1)N(S(=O)(=O)c1cccs1)CCC2,8.7%,.,8%,.
CS(=O)(=O)N1CCCC(C(=O)NCCCN2CCc3ccccc3C2)C1 (stereo not given),-0.8%,-7,-8%,-9%
Cc1nc2oc(C(=O)c3ccc(Br)cc3)c(N)c2c2c1COC(C)(C)C2,?,2,-23%,-6%
